2A StopGo – High Throughput Screening for Foot and Mouth Disease Virus Antivirals; Potency, µM (series often up to 57.9 µM), for the others: at the top dose signal change, negative = less light; 1.2% of 410,000 active; AID 1159524, 2015; human cells with a luciferase reporter of 2A StopGo recoding; control for the full effect not named in the record; active = well fitted falling curve with a large enough effect; inconclusive = small, poorly fitted or top-dose-only effect; inactive = no such curve, though single readings can be large or run the other way; tested in HEK293T cells; also: % is scaled to controls: 0 for no effect and ±100 for the full control effect; nearly all actives have a fitted effect of over 45% in size; luciferase light after 4 h
Cruzain inh noDet – qHTS Assay for Promiscuous and Specific Inhibitors of Cruzain (without detergent); Cruzipain (Trypanosoma cruzi), P25779; purified cruzain, Z-FR-AMC fluorescence, no detergent; Potency, µM, without a hit: max response, negative = inhibition, actives largely listed as inhibitors; 2.3% of 200,000 active;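 also: plate controls were enzyme without inhibitor for no effect and buffer without enzyme for full effect; nearly all actives have a fitted effect of over 40% in size; top concentration of the series not given in the record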
Target sequence (P25779 123-467 limits assumed): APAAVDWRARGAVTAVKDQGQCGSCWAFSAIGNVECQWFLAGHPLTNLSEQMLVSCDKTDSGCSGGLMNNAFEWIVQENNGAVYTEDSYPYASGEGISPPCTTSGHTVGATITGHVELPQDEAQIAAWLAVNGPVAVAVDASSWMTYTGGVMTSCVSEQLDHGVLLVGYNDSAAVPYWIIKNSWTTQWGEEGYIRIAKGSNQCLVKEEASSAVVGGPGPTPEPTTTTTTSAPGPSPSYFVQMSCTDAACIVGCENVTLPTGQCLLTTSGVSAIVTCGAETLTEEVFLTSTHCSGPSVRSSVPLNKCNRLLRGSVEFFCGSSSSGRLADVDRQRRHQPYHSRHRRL
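Detergent-free condition (0.00005% Triton X-100) in acetate buffer pH 5.5 with DTT. 1.5 nM enzyme and compound were pre-mixed 15 min, then 2 uM Z-FR-AMC substrate added; reaction progress from fluorescence change between first and third reads (60 s).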
NS1 inh – qHTS Assay for Inhibitors of Influenza NS1 Protein Function. AID 2326, 2010. S. cerevisiae slowed by influenza A NS1, growth recovery by OD600. Potency, µM (titrated, usually from 46.1 µM), inactives show at the top dose activity, positive = more growth. 0.4% of 270,000 active; active means well fitted rising curve with a large enough effect; inconclusive means small, poorly fitted or top-dose-only effect; inactive means no such curve, though single readings can be large or run the other way; also: nearly all actives have a fitted effect of over 50% in size
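Growth recovery, yeast-based: influenza A NS1 expressed in S. cerevisiae causes slow growth, and suppressors are detected by OD600. The parent strain without NS1 is used as positive control.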
SARS PLP yeast – qHTS of Yeast-based Assay for SARS-CoV PLP; S. cerevisiae expressing SARS-CoV PLpro, growth rescue; control for the full effect not named in the record; Potency, µM (titrated, usually from 32.9 µM), without a hit: top-dose activity, positive = growth rescue; 0.19% of 330,000 active; active means well fitted rising curve with a large enough effect; inconclusive means small, poorly fitted or top-dose-only effect; inactive means no such curve, though single readings can be large or run the other way; also: 0% is about no effect; nearly all actives have a fitted effect of over 55% in size; growth read by luminescence after 48 h
Marburg entry inh – qHTS for inhibitors of binding or entry into cells for Marburg Virus; Marburg virus pseudotyped entry inhibition, cell reporter; control for the full effect not named in the record; about a third of the inactives were read at about 46 µM; Potency, µM (series often up to 37.8 µM), for the others: at the highest dose activity change, negative = inhibition, usual class: inhibitors; 1.8% of 300,000 active; active = well fitted inhibition curve with a large enough effect; inconclusive = small, poorly fitted or top-dose-only effect, or effect the other way; inactive = flat fitted curve, though single readings scatter; tested in HEK293 cells; about a fifth of its hits are not listed in these tables; also: % is scaled to controls: 0 for no effect and ±100 for the full control effect; luciferase read-out
LASV entry inh – qHTS for Inhibitors of binding or entry into cells for Lassa Virus | Lassa virus pseudotype entry inhibition, cell reporter; control for the full effect not named in the record | Potency, µM (top dose mostly 37.9 µM), inactives show at the highest dose activity change, negative = inhibition, most hits filed as inhibitors | 1.2% of 300,000 active; active means well fitted inhibition curve with a large enough effect; inconclusive means small, poorly fitted or top-dose-only effect, or effect the other way; inactive means flat fitted curve, though single readings scatter; tested in HEK293 cells; also: % is scaled to controls: 0 for no effect and ±100 for the full control effect; nearly all actives have a fitted effect of over 50% in size; luciferase read-out
Cruzain Triton – qHTS Assay for Promiscuous and Specific Inhibitors of Cruzain (with detergent) | Cruzipain (Trypanosoma cruzi), P25779 | Potency, µM, for the others: max response, negative = inhibition, most hits filed as inhibitors | purified cruzain, Z-FR-AMC fluorescence, 0.01% Triton | 0.43% of 200,000 active;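 also: plate controls were neutral wells for no effect and buffer without enzyme for full effect; nearly all actives have a fitted effect of over 40% in size; top concentration of the series not given in the record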
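Z-FR-AMC hydrolysis (2 uM substrate) by cruzain (1.5 nM) monitored kinetically at ex 360/em 450 nm after 15 min room-temperature compound exposure; 0.01% Triton X-100, pH 5.5, 5 mM DTT.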
RE007 growth inh – qHTS Assay for Inhibitors of the HIV-1 protein Vpr; S. pombe RE007 Vpr strain, BacTiter-Glo ATP luminescence, 24 h; control for the full effect not named in the record; Potency, µM (top dose mostly 92.2 µM), inactives show at the top dose activity change, negative = less growth; 0.21% of 360,000 active; active = well fitted falling curve with a large enough effect; inconclusive = small, poorly fitted or top-dose-only effect; inactive = no such curve, though single readings can be large or run the other way;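 also: % is scaled to controls: 0 for no effect and ±100 for the full control effect; nearly all actives have a fitted effect of over 50% in size; the assay follows cell death caused by Vpr and the record does not say whether a fall means rescue or toxicity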
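Fission yeast RE007 carrying one integrated HIV-1 vpr copy, seeded at OD 0.01 in PMG+AL medium with 23 nL pinned compound. Grown 24 h at 30 degrees; viability read by BacTiter-Glo luminescence after 5 min.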
* = called active by the depositor; ? = inconclusive; / = no result given; & = joins results of further samples; [ ] = remark or other dose. Unless noted, calls follow the shape of the dose curve; as a rule, active = well fitted curve in the direction sought with a large enough effect; inconclusive = small, poorly fitted or top-dose-only effect, or another doubt; inactive = no such curve, though single readings can be large; an effect the other way counts as inactive or inconclusive. Potency is read from the fitted curve at half-maximal effect.

The line under a structure holds: 2A StopGo	Cruzain inh noDet	NS1 inh	SARS PLP yeast	Marburg entry inh	LASV entry inh	Cruzain Triton	RE007 growth inh
CC(C)C1OC2c3cccc4cccc(c34)C2N1c1ccccc1 (stereo not drawn)
    -4.2%	-23.3%	-14.9%	-36.0%	-17.8%	1.7%	-4.3%	?
Cc1cccc2cc(CN(Cc3ccco3)C(=O)c3cccs3)c(=O)[nH]c12
    0.0%	-9.6%	-9.6%	3.5%	-8.0%	-10.3%	1.2%	1.7%
COCCn1c(SCC(=O)Nc2cc(C)on2)nnc1-c1ccco1
    -14.6%	-8.5%	-4.9%	5.2%	19.9%	5.8%	-2.2%	-4.6%
COc1ccc(S(=O)(=O)N2CCCC(C(=O)N3CCCC3)C2)cc1OC (stereo not drawn)
    -23.8%	/	/	0.5%	-4.2%	11.7%	/	3.9%
N#Cc1ncn(-c2ccc(Oc3ccccc3)cc2)c1N
    -7.3%	/	-2.1%	0.5%	?	24.1%[46.1 µM]	/	8.2%
O=c1[nH]c2cccc(Cl)c2n(CCNc2ncc(C(F)(F)F)cc2Cl)c1=O
    ?	-1.3%	-1.3%	8.9%	?	?	-2.4%	0.9%
CCOc1ccccc1NC(=O)c1ccc2nccnc2c1
    /	-1.8%	-24.6%	-24.9%	12.4%	-4.5%	0.0%	2.0%
Cc1ccc(N2CC(C(=O)NCc3ccccn3)CC2=O)cc1 (stereo not drawn)
    /	-16.0%	-0.3%	-0.7%	8.5%	3.8%	0.9%	-6.1%
COC(=O)Cn1cnc2ccccc2c1=O
    -9.4%	1.0%	3.9%	-1.8%	-8.8%[46.1 µM]	-6.0%	5.7%	2.5%
Cc1cccc(N2CCN(C(=S)Nc3ccc4nc(N5CCN(C)CC5)cc(C)c4c3)CC2C)c1 (stereo not drawn)
    -11.5%	/	-0.7%	-0.5%	/	/	/	-6.5%
COc1ccc(NC2CS(=O)(=O)CC2NCc2ccco2)cc1 (stereo not drawn)
    -5.1%	-1.8%	-0.6%	2.3%	9.8%[46.1 µM]	14.9%	0.5%	10.6%
O=C(CCN1C(=O)c2ccc([N+](=O)[O-])cc2C1=O)Nc1cccc(O)c1
    6.1%	-2.5%	-1.6%	13.4%	3.3%	-1.2%	-2.5%	2.4%
Cc1cc(C(=O)O)c2c(=O)n(C)c(=O)n(C)c2n1
    -5.9%	6.2%	/	/	16.0%[46.1 µM]	2.9%[46.1 µM]	-0.5%	/
COc1ccc(N(CC(=O)Nc2cccc(N(C)S(C)(=O)=O)c2)S(=O)(=O)c2ccccc2)cc1Cl
    -20.2%	/	?	0.5%	?	-23.8%	/	-16.2%
Cc1nc2ccccc2n1CCOc1ccc([N+](=O)[O-])cc1
    -13.2%	/	-3.4%	0.7%	4.7%[46.1 µM]	-2.0%[46.1 µM]	/	0.0%
CN(C)S(=O)(=O)c1ccccc1N=C=S
    -5.0%	/	-0.1%	0.0%	/	/	/	9.1%
COc1ccc(-c2nc(C(N)=O)c3[nH]c(=O)n(-c4ccccc4OC)c3n2)c(OC)c1
    -15.5%	-10.8%	-2.9%	4.0%	-4.7%	/	-2.0%	8.3%
Cc1ccc2c(c1)N(CCC(=O)NC(C)C)C(=O)CO2
    0.0%	-4.2%	1.0%	2.5%	?	13.0%	1.0%	4.8%
N#CCc1c(C#N)c(N)nc(N2CCCC(CO)C2)c1C#N (stereo not drawn)
    -10.4%	/	/	-5.6%	?	4.2%	/	-9.5%
O=C(NCCc1ccco1)c1ccc(OCc2cn3ccccc3n2)cc1
    17.7%	/	/	1.5%	?	-12.7%[46.1 µM]	/	-19.2%
O=C(Nc1ccccc1)C1CC(=O)N(c2ccc3c4c(cccc24)CC3)C1 (stereo not drawn)
    /	-9.7%	-5.3%	-1.9%	-13.7%	-6.1%	-8.0%	8.1%
Oc1c(Br)cc2oc3c(c2c1CNCc1ccccc1)CCCC3
    -28.3%	31.6µM*	0.5%	-0.1%	?	-12.4%	-7.8%	-21.2%
COC(=O)CN(n1cnnc1)S(=O)(=O)c1ccccc1Cl
    -27.9%	1.8%	3.9%	3.1%	-15.9%	22.5%	-5.2%	-8.7%
Cc1ccc(-c2onc3ccc(C(=O)/C=C/N(C)C)cc23)cc1
    0.5%	/	9.9%	-4.4%	4.9%[46.1 µM]	?	/	28.9%
COc1ccc2[nH]c(C(=O)Nc3ccc4c(c3)OCO4)cc2c1
    35.6%[activator]	/	6.4%	-0.5%	/	/	/	-5.7%
CC(C)C(NC(=O)c1ccco1)C(=O)OCc1cc([N+](=O)[O-])cc2c1OCOC2 (stereo not drawn)
    -14.9%	/	-6.2%	-1.3%	-5.9%	?	/	-12.0%
CN=C(Nc1ccc(Cl)cc1)c1ccc(C(F)(F)F)cc1
    -2.1%	-7.4%	-14.9%	-5.9%	-21.9%	17.6%	-0.6%	-12.5%
CCC1CCCCN1CCCNC(=O)CS(=O)(=O)Cc1nc(-c2cccc(OC)c2)oc1C (stereo not drawn)
    -17.0%	/	4.4%	?	/	/	/	16.1%
CCOC(=O)C1CCCN(S(=O)(=O)c2ccccc2)C1 (stereo not drawn)
    18.3%	2.3%	-15.3%	1.4%	-6.9%	6.5%	3.5%	0.0%
CCOc1ccc(C(=O)Nc2ccc(-c3cc4ccccc4oc3=O)cc2)cc1Br
    -10.6%	5.1%	/	/	/	11.0%[46.1 µM]	2.0%	/
C[C@]12C[C@H](O)[C@@H]3c4ccc(O)cc4CCC3[C@@H]1CCC2=O (stereo partly drawn)
    -12.2%	/	-0.3%	-5.3%	/	/	/	3.4%
CCOC(=O)c1c(C)[nH]c(C=Nc2ccc(OC)cc2)c1O
    1.3%	-14.8%	12.5%	-16.3%	1.2%	?	-7.7%	8.6%
COc1cc(NC(=O)C2CCN(S(=O)(=O)c3ccc4[nH]c(=O)oc4c3)CC2)cc(OC)c1
    -7.8%	/	14.0%	0.3%	12.9%[46.1 µM]	?	/	5.5%
Cc1cccc(-c2nc(CSCC(=O)N3CCN(Cc4ccc5c(c4)OCO5)CC3)c(C)o2)c1
    ?	0.4%	-35.2%	3.5%	-29.2%&-29.2%	-17.8%	2.8%	1.3%
O=C(C1COc2ccccc2O1)N1CCN(c2nc3c(F)cc(F)cc3s2)CC1 (stereo not drawn)
    -11.4%	/	/	-8.2%	?	-14.2%[46.1 µM]	/	-2.2%
CCC(=O)N1CCc2cc(Br)cc(S(=O)(=O)N3CCCC(C(=O)Nc4ccc(OC)cc4OC)C3)c21 (stereo not drawn)
    -1.4%	-7.9%	/	/	-4.6%[46.1 µM]	-6.1%[46.1 µM]	-1.7%	/
COCCSc1nnc(NS(=O)(=O)Cc2ccccc2)s1
    /	-5.5%	1.1%	-1.6%	3.0%	-0.4%	3.3%	8.9%
Cc1cccc(N(CC(=O)NCc2ccco2)C(=O)CCC(=O)Nc2nccs2)c1
    7.2%	/	3.2%	0.9%	-18.9%[46.1 µM]	-1.3%[46.1 µM]	/	-2.5%
O=C(OC[C@@H]1CCCN2CCCC[C@H]12)c1cc2ccccc2oc1=O
    -12.6%	-3.2%	-24.9%	-6.9%	8.9%	0.0%	-3.7%	-5.0%
Cc1cc(=O)[nH]c(N/N=C/C=C/c2ccccc2)n1
    -3.8%	/	/	-2.5%	-0.2%[46.1 µM]	7.1%[46.1 µM]	/	11.1%
CCOC(=O)C1CCCN(C(=O)c2ccc(-c3ccc([N+](=O)[O-])cc3)o2)C1 (stereo not drawn)
    ?	/	/	-44.3%	?	16.3%	/	?
CN(C)CCN(Cc1ccccc1)c1ccccn1
    -21.8%&-20.6%	0.9%&1.0%	-0.7%	3.4%&4.0%	-2.6%&-2.6%&-2.6%&-2.6%&-2.6%&-2.6%	?	1.6%&-1.9%	-2.5%
CN(CC(=O)NCc1cccc(F)c1)C(=O)c1ccco1
    /	5.3%	3.5%	4.9%	13.9%	-14.5%	4.3%	-16.4%
CC(C)CC1NC(=O)N(CC(=O)Nc2ccc(OCc3ccccc3)cc2)C1=O (stereo not drawn)
    0.0%	/	/	0.9%	4.3%[46.1 µM]	-3.6%	/	2.8%
COC(=O)Nc1ccc(S(=O)(=O)NNC(=O)c2c(O)c3ccccc3[nH]c2=O)cc1
    -8.3%	/	1.0%	4.2%	/	/	/	-8.7%
COc1ccc(S(=O)(=O)N2CCC(C(=O)NCCN3CCOCC3)CC2)cc1OC
    -1.0%	/	-3.4%	1.5%	14.4%[46.1 µM]	1.3%	/	-11.4%
COc1cc(-c2cc(N3C(=O)Nc4ccccc4N3O)n[nH]2)cc(OC)c1OC
    -12.8%	-7.8%	?	9.1%	-1.5%	15.2%	-2.1%	-14.3%
CCc1ccccc1NC(=O)CSc1nccn1C
    1.2%	-4.4%	/	/	-13.8%[46.1 µM]	-4.8%[46.1 µM]	-0.1%	/
NS(=O)(=O)c1cccc(NC(=O)c2ccc3nc[nH]c3c2)c1
    -3.0%	/	2.1%	0.7%	2.0%	10.5%	/	-13.9%
O=C(Nc1ccc(F)cc1)c1cc(S(=O)(=O)N2CCCCC2)ccc1F
    ?	/	4.2%	-0.3%	/	/	/	6.1%
CCc1ccc(OCC(O)CN2CCN(CCO)CC2)cc1 (stereo not drawn)
    -11.9%	/	-8.3%	-1.3%	8.6%	?	/	-4.6%
O=C(NCC(c1cccs1)S(=O)(=O)c1cccs1)c1ccc(F)c(F)c1 (stereo not drawn)
    -15.4%	-4.1%	/	/	/	-23.7%[46.1 µM]	-2.5%	/
COC(=O)c1[nH]c2cc(OC)ccc2c1NC(=O)CN1CCOCC1
    /	27.4%	-2.1%	-8.0%	/	/	2.5%	/
